AID923: qHTS Assay for Allosteric/Competitive Inhibitors of Caspase-1: Spectroscopic Profiling in AFC Spectral Region. compound fluorescence, AFC spectral region (405/520 nm); almost no hit is shown here. Potency, µM (highest dose often 57.5 µM), inactives show top-dose fluorescence increase, usual class: activators. 75,000 compounds, 1.1% hits. AID 923, 2007; active = well fitted activation curve with a large enough effect; inconclusive = small, poorly fitted or top-dose-only effect;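 also: potency is read from the fitted curve at half-maximal effect; 0% is about no effect; scaled to a free AFC standard on each plate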
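Titrations up to 57 uM read every 20 sec for 3 min (405/520 nm) with 50 nM caspase 1 and 5 uM Ac-WEHD-AFC, pH 7.5 HEPES buffer. Fluorescence-vs-time intercept gave baseline, scaled against on-plate AFC standard.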
Resorufin fluor: compounds fluorescent in resorufin spectral region | max dye-equivalent concentration, M | 59,000 compounds, 0.04% hits | AID 588 | Compound fluorescence, resorufin region 547/598 nm, buffer; active compounds read high; active = above 10 nM dye equivalent; inconclusive = 1 to 10 nM; inactive = 1 nM or less; a few of its hits are not listed in these tables; also: highest value over a series up to 38 µM
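Read-out: intrinsic compound fluorescence at ex 547/em 598 nm after 15 min at RT in pH 8.0 Tris (100 mM). Values expressed as resorufin-equivalent concentration from per-plate standard series.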
TSHR ag: TSH receptor (human) agonism; 73,000 compounds, 0.48% hits; P16473; HEK293-CNG-TSHR cells (CNG channel as cAMP sensor), membrane potential dye, cAMP; Potency, µM (highest dose often 57.1 µM), inactives show at the highest dose activation, actives largely listed as activators; active = well fitted activation curve of enough size with the parental cells flat; inconclusive = any curve in the parental cells; inactive = parental cells flat and receptor cells flat or falling; also: potency is read from the fitted curve at half-maximal effect; % of control where 0% means no effect; weak receptor curves with flat parental cells got no call and are not listed
Target sequence (P16473 whole entry, looked up): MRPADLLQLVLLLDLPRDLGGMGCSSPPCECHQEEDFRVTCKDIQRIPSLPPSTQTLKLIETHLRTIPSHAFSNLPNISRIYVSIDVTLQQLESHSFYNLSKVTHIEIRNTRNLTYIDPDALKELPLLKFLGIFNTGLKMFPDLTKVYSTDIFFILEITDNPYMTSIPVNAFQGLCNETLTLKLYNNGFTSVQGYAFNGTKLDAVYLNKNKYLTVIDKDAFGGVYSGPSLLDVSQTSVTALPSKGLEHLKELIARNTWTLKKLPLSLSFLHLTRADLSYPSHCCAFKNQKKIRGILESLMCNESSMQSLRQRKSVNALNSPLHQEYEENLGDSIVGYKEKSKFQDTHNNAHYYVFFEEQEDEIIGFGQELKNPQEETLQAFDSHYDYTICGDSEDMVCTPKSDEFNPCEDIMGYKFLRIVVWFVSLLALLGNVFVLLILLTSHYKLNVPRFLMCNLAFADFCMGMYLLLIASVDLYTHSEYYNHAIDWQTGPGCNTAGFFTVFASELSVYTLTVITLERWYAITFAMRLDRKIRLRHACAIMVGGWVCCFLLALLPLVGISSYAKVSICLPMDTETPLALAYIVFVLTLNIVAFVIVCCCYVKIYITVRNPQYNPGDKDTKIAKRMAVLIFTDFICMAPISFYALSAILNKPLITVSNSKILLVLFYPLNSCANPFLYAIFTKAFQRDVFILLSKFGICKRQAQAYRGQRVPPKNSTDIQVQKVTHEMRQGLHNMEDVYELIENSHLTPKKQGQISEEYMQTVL
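HEK 293 cells stably expressing TSHR and a cAMP-gated CNG channel; parental CNG-only cells as counterscreen. Cells preloaded 60 min with membrane potential dye plus 100 uM RO 20-1724, then compound 30 min; fluorescence read at 590 nm.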
A488 autofl: A488 region autofluorescence. compound autofluorescence, A488 spectral region, dye equivalency; active compounds read high. max dye equivalency, M. 59,000 compounds, 0.1% hits. AID 591; active = above 10 nM dye equivalent; inconclusive = 1 to 10 nM; inactive = 1 nM or less; about half of its hits are not listed in these tables;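 also: highest value over a series up to 38 µM; compound alone in buffer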
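Autofluorescence read at ex 480/em 540 nm after 15 min RT in 100 mM Tris pH 8.0; compound signal normalized to A488 standard series on each plate, reported as dye-equivalent concentration at each test concentration.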
A647 autofl: compound fluoresces in the A647 spectral region; 59,000 tested, under 10 active; Compound fluorescence, A647 channel (570/671 nm), Tris buffer; max dye-equivalent concentration, M; active means above 1 µM dye equivalent; inconclusive means 0.1 to 1 µM; inactive means 0.1 µM or less;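 also: values scaled relative to a standard on each plate; highest value over a series up to 38 µM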
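Tris 100 mM pH 8.0; cpd + A647 stds pin-transferred; 15 min RT; CCD imager, ex 570/em 671. Output = A647-equivalent conc. per cpd conc.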
An asterisk follows results filed as active; i = inactive; u = inconclusive; x = no result given; [ ] = another dose, or the depositor's remark. A portion of the library (hit frequency here may not be typical).

compound	AID923	Resorufin fluor	TSHR ag	A488 autofl	A647 autofl
COc1cccc(Cn2c(=O)c(C)nc3cnc(OCc4ccccc4)nc32)c1	2.3%	i	u	i	4.7e-09
CCOCCCn1c(C)nc2c(c1=O)c1nc3ccccc3nc1n2CCC1=CCCCC1	17%	i	u	i	5.5e-09
O=C(CCC1CCCCC1)Nc1c2c(nn1-c1ccc(F)cc1)CS(=O)C2 (centres undefined)	0.5%	i	u	i	1.4e-08
C[C@@H](C(=O)NCc1cccc2ccccc12)[C@H]1C[C@]1(C)[C@H](NC(=O)OCc1ccccc1)c1ccccc1	-3.6%	x	4%	x	x
O=C1c2ccccc2C(=O)N1Cc1nc(-c2ccccn2)no1	0.1%	i	2%	i	1e-09
CCCCC(=O)Nc1ccc(C(=O)Nc2ccc(S(=O)(=O)N3CCCC3)cc2)cc1	-2.8%	i	-6%	i	2.5e-08
Cc1ccc(NC(=O)CN(C)c2ccc(S(=O)(=O)N3CCN(C)CC3)cn2)cc1	-0.8%	i	-7%	i	4.1e-08
O=C(O)CN1C(=O)O[C@@H](c2ccccc2)C1=O	3.2%[11.5 µM]	i	5%[11.4 µM]	i	1.8e-08
C=CCSC1=N/C(=C\c2ccc3c(c2)OCO3)C(=O)S1	9.6%	x	6%	x	x
O=C(NCCc1ccccc1)c1cc2ncc(Br)cn2n1	0.0%	i	8%	i	2.2e-08
Cc1cc(C)c(NC(=O)c2ccc(S(=O)(=O)N3CCOCC3)cc2)c(C)c1	-2.1%	x	8%	x	x
COc1ccc(NC(=O)C2CC2)cc1-n1cnnn1	1.0%	i	-1%	i	1e-09
COC(=O)C1CCN(C(=O)c2ccccc2Oc2ccccc2)CC1	-2.1%	x	u	x	x
O=C(NC1CCCC1)C1CCCN1C(=O)Nc1ccccc1 (centres undefined)	-1.1%	i	-4%	i	1e-09
O=C(O)c1ccc2c(c1)N(Cc1ccccc1)C(=O)c1ccccc1S2=O (centres undefined)	0.2%	x	8%	x	x

The list goes on:
compound	AID923	Resorufin fluor	TSHR ag	A488 autofl	A647 autofl
O=c1nc2n(c3sc4c(c13)CCC4)Cc1ccccc1-2	0.4%	i	4%	i	1e-09
CCC(=O)/C=C1\Sc2ccc(OC)cc2N1CCO	-0.6%	i	2%	i	1e-09
CCCn1nnc(NC(=O)c2cc(Br)ccc2OC)n1	-2.2%	i	1%	i	1e-09
S=c1[nH]ncc2ccccc12	2.0%	i	5%	i	3.1e-09
Cc1noc(/C=C/N(C)C)c1S(=O)(=O)N1CCCC(C(=O)NCc2ccc(Cl)cc2)C1 (centres undefined)	6.1%	i	4%	i	1.6e-08
CC(C)(C)c1ccc(C(=O)Nc2nonc2-c2nc3ccccc3[nH]2)cc1	-0.4%	i	-1%	i	8.2e-08
COc1ccc(CNC(=O)C(NS(=O)(=O)c2ccc3c(c2)CCCN3C(C)=O)C(C)C)cc1 (centres undefined)	-1.9%	i	-11%	i	1e-09
CN(C)S(=O)(=O)N1CCN(CC(O)COc2ccc(C(=O)c3ccccc3)cc2)CC1 (centres undefined)	1.3%	i	12%	i	4.1e-08
COc1ccc(-n2nnnc2SCC(=O)c2cc3ccccc3o2)cc1	3.7%	i	u	i	3.6e-08
c1ccc(-c2cccc(N3CC[C@@]4(CCCNC4)C3)c2)cc1	-1.0%	i	-7%	i	1.2e-08
NNC(=O)CCc1ccc2ccc3ccccc3c2c1	-2.5%[11.5 µM]	i	7%[11.4 µM]	i	5.9e-08
COc1ccc(C(=O)N2CCN(S(=O)(=O)c3ccccc3)CC2)c(OC)c1	-0.8%	i	4%	i	3.9e-08
CC(C)C(c1nnnn1CCc1ccccc1)N1CCOCC1 (centres undefined)	1.0%	i	1%	i	3.2e-08
Cc1nc(N2CCOCC2)c2nc(-c3ccccc3)n(CCN3CCOCC3)c2n1	-1.6%	x	-1%	x	x
COc1ccccc1C(=O)Nc1ccc(S(=O)(=O)N2CCOCC2)cc1	7.2%	i	4%	i	1.6e-09

Five compounds out of the list, ordered by heavy-atom count, rising.
compound	AID923	Resorufin fluor	TSHR ag	A488 autofl	A647 autofl
S=c1[nH]ncc2ccccc12	2.0%	i	5%	i	3.1e-09
O=c1nc2n(c3sc4c(c13)CCC4)Cc1ccccc1-2	0.4%	i	4%	i	1e-09
COc1ccc(C(=O)N2CCN(S(=O)(=O)c3ccccc3)CC2)c(OC)c1	-0.8%	i	4%	i	3.9e-08
Cc1noc(/C=C/N(C)C)c1S(=O)(=O)N1CCCC(C(=O)NCc2ccc(Cl)cc2)C1 (centres undefined)	6.1%	i	4%	i	1.6e-08
COc1ccc(CNC(=O)C(NS(=O)(=O)c2ccc3c(c2)CCCN3C(C)=O)C(C)C)cc1 (centres undefined)	-1.9%	i	-11%	i	1e-09

(cont.)
compound	AID923	Resorufin fluor	TSHR ag	A488 autofl	A647 autofl
Cc1ccc(-n2nc(C)c3c2OC(N)=C(C#N)C3c2ccco2)cc1 (centres undefined)	0.0%	x	u	x	x
c1ccc(CN2COc3c(ccc4c5c(ccc34)CN(Cc3ccccc3)CO5)C2)cc1	-0.2%[11.5 µM]	i	4%[11.4 µM]	i	3.5e-09
O=c1oc(-c2cccs2)nc2scc(-c3cccs3)c12	6.3%	i	1%	i	1e-09
C=CCn1c(N)nc2ccccc21	-1.0%	i	-2%[11.4 µM]	i	1e-09
COC(=O)c1cc2nc(-c3ccccc3)cc(C)n2n1	4.9%	i	-3%	i	1e-09
CC(=O)NC(Cc1cc(C)ccc1C)C(=O)N1CCN(C(=O)Nc2ccc(C(C)=O)cc2)CC1 (centres undefined)	-0.5%	i	4%[11.4 µM]	i	1.6e-09
CC(C)C(C(=O)NCC1CCCO1)N(Cc1ccco1)C(=O)CNS(=O)(=O)c1ccc(F)cc1 (centres undefined)	0.7%	i	-3%	i	1.9e-08
Cc1ccc(-c2nn(CCC(=O)NCC3CCCO3)c(=O)c3ccccc23)cc1 (centres undefined)	x	i	x	i	1.4e-08
CC1(C)CC(=O)c2c(-c3cccnc3)n[nH]c2C1	0.4%	i	0%	i	1.2e-08
COCCCNC(=O)CCc1nc2cccnc2n1Cc1ccccc1	-0.2%	i	3%	i	1.2e-09
O=c1[nH]c(=S)[nH]c(-c2ccccc2)c1Cc1c(O)ccc2ccccc12	-3.2%[11.5 µM]	i	u	i	2.7e-08
COCCNC(=O)CSc1nc2nc(C)cc(C)n2n1	-0.6%	i	6%	i	5.8e-09
CN(CCNC(=O)c1cccc(N2CCCC2=O)c1)Cc1ccccc1	-0.6%	i	3%	i	1e-09
CCOc1ccc(C2C=C(c3ccccc3)Nc3ncnn32)cc1 (centres undefined)	x	i	x	i	1.1e-09
COn1c(-n2nc(C)cc2C)nc2ccccc2c1=O	-0.9%	i	2%	i	1e-09

Next part:
compound	AID923	Resorufin fluor	TSHR ag	A488 autofl	A647 autofl
Cn1c(N)nc2c(nc(OCc3ccccc3)n2[C@@H]2O[C@H](CO)[C@@H](O)[C@@H]2O)c1=O	0.0%[11.5 µM]	i	-1%[11.4 µM]	i	3.6e-08
C=CCN1CC(c2nc3ccccc3n2CCOc2ccccc2)CC1=O (centres undefined)	-1.7%	i	u	i	3.7e-09
CCOC(=O)c1cc(C)n(-n2cnnc2)c1C	-2.2%	i	3%	i	2.6e-08
CCN(CC)C(=O)C(C)OC(=O)c1ccc(O)cc1 (centres undefined)	0.2%	x	10%	x	x
Cc1cc(C)nc(NS(=O)(=O)c2ccc(Br)cc2)n1	1.3%	i	-13%	i	1.1e-09
Cn1c(CCNC(=O)c2ccco2)nc2cc(NS(=O)(=O)c3ccccc3)ccc21	-0.4%	i	1%	i	2.7e-08
CCOC(=O)c1c(C)[nH]c(C(=O)COC(=O)CSCC(=O)N(CC)CC)c1C	0.0%	i	3%	i	4.9e-09
Cc1cc(NC(=O)C2CCCN(S(=O)(=O)c3cnc[nH]3)C2)ccc1Br (centres undefined)	-0.6%	x	-3%	x	x
O=C(Cc1cn2ccsc2n1)Nc1ccccn1	3.2%	i	3%	i	2.9e-08
Cn1c(SCc2c(F)cccc2Cl)nnc1-c1cccs1	-0.6%	i	x	i	1.7e-08
CSc1nnc(N(CCC#N)CCC#N)s1	x	i	x	i	2.1e-08
CCOC(=O)c1cccc(NC(=O)CN(c2ccc(OC)cc2)S(=O)(=O)c2c(C)noc2C)c1	-1.1%	i	17%	i	5.6e-09
CCn1nnc(NC(=O)CSc2ccc(Cl)cc2)n1	-1.1%	i	8%	i	1e-09
O=C(CCS(=O)(=O)Cc1ccccc1)Nc1nc2c(s1)CCCC2	-1.3%	i	-3%	i	1e-09
OC(CCCN1CCCCC1)(c1ccccc1)c1ccccc1	1.8%[25.7 µM]	i	2%[25.6 µM]	i	3.4e-09

(listing goes on)
compound	AID923	Resorufin fluor	TSHR ag	A488 autofl	A647 autofl
N[C@H](Cc1cc(I)c(Oc2ccc(O)c(I)c2)c(I)c1)C(=O)O	-1.3%[25.7 µM]	i	u	i	1e-09
CCOc1ccc(N2CC(C(=O)NC(C)C)CC2=O)cc1 (centres undefined)	-1.1%	i	-1%	i	1e-09
CCOc1cc(NC(=O)c2ccco2)c(OCC)cc1NC(=O)COc1ccccc1C	2.4%	i	-9%	i	1.8e-08
CC1=C(C(=O)Nc2cc(-c3cccc(F)c3)[nH]n2)C2(CCCCC2)OC1=O	-1.9%	x	-6%	x	x
COC(=O)C1=C(C)NC(=O)C1(NC(=O)CN1CCCC1=O)C(F)(F)F (centres undefined)	-0.5%	i	-1%	i	3.8e-08
O=C(Cn1c(NCCCO)nc2ccccc21)c1ccco1	0.1%	i	3%	i	1.8e-08
CCCNC(=O)N(C)c1nncnc1C(=O)NC	x	i	x	i	1.6e-08
COc1ccc(N2CC(C(=O)NCc3ccccc3)CC2=O)cc1 (centres undefined)	0.4%	i	3%	i	8.7e-09
CCOC(=O)N1CCN(C(=O)CCCn2nc(C)c3sc4ccccc4c3c2=O)CC1	1.9%	i	26%	i	1e-09
CC(=O)N(CCCN(C)C)CCC(C)CCC=C(C)C (centres undefined)	-1.5%	x	5%	x	x
Cc1ccccc1-c1nc(CS(=O)(=O)CC(=O)NCc2ccccc2)c(C)o1	2.7%	x	16µM*	x	x
CCOc1ccccc1N(CC(=O)N1CCCCCC1)S(C)(=O)=O	1.9%	x	-2%	x	x
COCCCN1C(=O)c2[nH]nc(-c3ccccc3O)c2C1c1cccc(Cl)c1 (centres undefined)	-1.7%	i	11%	i	1.1e-08
O=c1[nH]ncc2c3ccccc3n(Cc3ccccc3F)c12	5.3%	x	u	x	x
c1ccc(-c2nc(-c3ccco3)cs2)nc1	1.7%	i	13%	i	1.6e-09

Next entries
compound	AID923	Resorufin fluor	TSHR ag	A488 autofl	A647 autofl
Cc1cc(C)cc(OCC(=O)Nc2ccc(N3CCN(S(C)(=O)=O)CC3)cc2)c1	-1.1%	i	-6%	i	1.2e-09
Cc1ccc(S(=O)(=O)N2CCC(C(=O)N[C@@H](C)C(=O)NCCc3ccccc3)CC2)cc1	2.2%	i	2%	i	3.1e-08
CCNc1nc(NC(C)C)nc(Oc2ccc(OCCOc3ccc(C)cc3)nn2)n1	-0.1%	x	29%[11.4 µM]	x	x
Cn1c(=O)c2c(nc(N/N=C\c3ccccc3C(=O)O)n2C)n(C)c1=O	-0.1%[11.5 µM]	i	0%[11.4 µM]	i	1e-09
COc1ccc2c(c1)C(C)=CC(C)(C)N2C(=O)C(C)N1C(=O)c2ccccc2C1=O (centres undefined)	0.0%	i	u	i	1e-09
CCOc1ccc(NC(=O)c2ccccc2NC(=O)CN2CCN(C(C)=O)CC2)cc1	-0.1%	i	0%	i	1e-09

Assay outcomes as filed in PubChem.
